# From PubChem
# Rce1 inh: blocks yeast Ras-converting enzyme; Q03530; yeast membranes, quenched prenylated peptide cleavage fluorescence; calls only; actives 0.27% (n = 290,000); AID 2563;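 active means fall in fluorescence gain of 50% or more versus controls, with final raw signal at or below 3038400; inconclusive means same 50% fall but final raw signal above 3038400; inactive means fall in fluorescence gain under 50%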;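 further: plate controls were neutral control wells for no effect and wells lacking membranes for full effect; tested at 10 µM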
# Target sequence (Q03530 whole entry, looked up): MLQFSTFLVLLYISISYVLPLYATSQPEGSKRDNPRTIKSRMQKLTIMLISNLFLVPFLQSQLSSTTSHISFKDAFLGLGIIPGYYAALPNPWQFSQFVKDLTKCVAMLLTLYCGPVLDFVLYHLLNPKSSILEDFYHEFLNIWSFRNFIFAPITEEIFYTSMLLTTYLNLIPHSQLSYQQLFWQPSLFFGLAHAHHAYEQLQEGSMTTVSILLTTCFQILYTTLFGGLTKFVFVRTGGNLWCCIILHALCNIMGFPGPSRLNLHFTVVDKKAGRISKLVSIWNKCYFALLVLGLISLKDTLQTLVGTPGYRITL
# UUG fidelity: modulators of start codon recognition fidelity in yeast. activity score, % at 18.7 µM. AID 602363. actives 0.13% (n = 350,000). S. cerevisiae UUG-firefly luciferase reporter, luminescence/redox ratio;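 active means replicate mean at a twofold rise or more, about +100% in these data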;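 further: firefly luciferase made from a UUG start codon reports start codon fidelity; reporter light over untreated wells divided by growth signal over untreated wells; some hits fall short of that in this replicate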
# HIV Env fusion: blocks HIV Env-driven cell-cell fusion. HeLa-JRFL Env/CEM21 cell fusion, luciferase. AID 651610. actives 1.1% (n = 360,000). inhibition, % at 12.3 µM;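 active means mean replicate inhibition score of at least 50 and every replicate individually at or above 50; inconclusive means only one of the two criteria met; inactive means mean below 50 and not all replicates reaching 50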;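 further: 0% = plate neutral controls and 100% = maraviroc near 300 nM; one replicate is shown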
# MT1-MMP act inh: inhibitors of human MT1-MMP activation; actives 0.061% (n = 360,000); P50281; AID 651647; HT1080 RFP-PRO-GFP cells, GFP/RFP ratio fluorescence, overnight; percent of plate control window, DMSO zero; GFP/RFP ratio change, % at 20 µM;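 active means GFP/RFP ratio change of at least 30% with cell ATP level not reduced by more than half and red fluorescence within 50% of control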; further: strong numbers were not always called active
#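 Read-out: GFP/RFP fluorescence ratio; Test system: RFP-PRO-GFP reporter HT1080 cells; Compound dosing: single-point 20 µM compound, 1% DMSO; Times: overnight compound exposure at 37 °C.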
# CSC inhib: cancer stem cell inhibition; cancer stem cell-like cells viability, luminescence; inhibition, % at 7.5 µM; actives 1.1% (n = 300,000); AID 2717;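 active means mean at 75% or more and at least half the replicates too; inconclusive means mean and replicates disagree; tested in HMLE shEcad cells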;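 further: 0% = median of negative and 100% = median of positive control wells; the first replicate is given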
# PABP polyA inh: PABP-poly(A) binding inhibition. inhibition, % at 35 µM. actives 1% (n = 290,000). PABP-poly(A) RNA binding, fluorescence polarization. P11940;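 active means 50% or more with normal probe brightness, or confirmed in later tests; inconclusive means above 50% with abnormal brightness, or retests that disagree; inactive means below 50% or failed in later tests; about a fifth of its hits are not listed in these tables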;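 further: calls also rest on retests at 20 µM and on dose response follow-up; controls were probe without protein and protein plus probe with vehicle; some compounds called inactive have numbers as strong as hits; many hits fall short of the cut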
# eIF4H inh: inhibitors of RNA binding by human eIF4H | Q15056 | eIF4H fluorescence polarization binding assay | inhibition, % at 35 µM | actives 0.94% (n = 290,000) | AID 2012;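 active means 50% or more with normal probe brightness, or confirmed in later tests; inconclusive means above 50% with abnormal brightness, or retests that disagree; inactive means below 50% or failed in later tests; about a fifth of its hits are not listed in these tables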;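 further: calls also rest on retests at 20 µM and on dose response follow-up; 0% = protein and probe with vehicle and 100% = probe without protein; strong numbers were not always called active; many hits fall short of the cut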
# eIF4H inh retest: further read-out of eIF4H inh, marked with its call; inhibition, %; compound at 20 µM; confirmation average;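 mean of two retest wells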
# PABP polyA inh retest: second read-out of PABP polyA inh, no call of its own (marks repeat the call); inhibition, %; compound at 20 µM; confirmation repeats;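 mean of two retest wells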
# MT1-MMP act inh RFP: recorded beside MT1-MMP act inh, whose call it bears; RFP signal change, %; measured here: RFP expression control read;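 0 = vehicle wells; hits needed this value within 50% of zero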
# The depositor's hits bear a star; i = inactive; ? = inconclusive; . = no result given; & = joins results of further samples; [ ] = remark or other dose. An excerpt; count on the stated rates, not on these rows.
SMILES,Rce1 inh,UUG fidelity,HIV Env fusion,MT1-MMP act inh,MT1-MMP act inh RFP,CSC inhib,PABP polyA inh,eIF4H inh,others
COc1ccc(CCNC(=O)Cn2c(=O)n(-c3ccc(F)cc3F)c(=O)c3sccc32)cc1OC,i,-1,24,-1,-2,2,-6,6,
CC(=O)c1ccc(OCCCC(=O)NCc2nnc3ccccn23)cc1,.,-9,-4,-1,3,.,.,.,
C=CCSCC1Nc2cc(Cl)c(S(N)(=O)=O)cc2S(=O)(=O)N1 (stereo not given),.,-12,-66,3,5,-15,.,.,
O=C(CN1C(=O)C2C3C=CC(C3)C2C1=O)NCc1ccc2c(c1)OCO2 (stereo not given),i,-6,-8,-3,5,.,-4,2,
CC(C)C(NC(=O)C1CCCCC1)C(=O)NCCc1ccccc1 (stereo not given),i,.,-17,-6,2,-2,12,-3,
O=C(COC(=O)Cc1n[nH]c(=O)c2ccccc12)NNC(=O)c1ccccc1,i,-18,3,-3,0,-11,.,.,
COCCCNC(=O)c1c(N)n(/N=C/c2cccs2)c2nc3ccccc3nc12,i,-10,-20,-6,2,4,-4,-10,
COc1cc(CCCN2CCNC[C@@H]2Cc2ccccc2)cc(OC)c1OC,i,-5,.,-5,-3,4,.,.,
O=S(=O)(NCc1cc(-c2ccccc2)no1)c1ccccc1,i,.,15,2,3,7,0,-11,
CC(C)NC(=O)C(c1ccc(F)cc1)N(C(=O)CCC(=O)Nc1ccccn1)c1ccccc1F (stereo not given),.,0,6,-3,1,-9,3,-3,
COc1ccc(CNC(=O)CSc2nnc(NC(=O)c3ccccc3F)s2)cc1,i,-13,-23,1,5,-1,2,3,
COc1ccc(CN(CC(=O)NCc2ccc(F)cc2)C(=O)CCC(=O)Nc2ccccn2)cc1,i,-2,22,-3,-1,-7,5,8,
CCCCn1c(N)c(N(CC)C(=O)c2cc(OC)cc(OC)c2)c(=O)[nH]c1=O,i,-8,0,-2,-2,6,1,13,
COc1ccc(S(=O)(=O)Nc2cccc(S(=O)(=O)N3CCCC3)c2)cc1OC,i,4,-5,1,1,-5,.,.,
CCOC(=O)C1CCCN(C(=O)c2cc(CN3C(=O)c4ccccc4C3=O)ccc2OC)C1 (stereo not given),i,-7,-9,2,-1,-11,.,.,
CC(NC(=O)c1cccs1)c1ccc(Cl)cc1 (stereo not given),i,-19,-3,-3,-3,.,.,.,
Cc1ccc(/C=C/C(=O)O)cc1S(=O)(=O)N1CCc2ccccc21,i,-18,-3,-1,4,-8,2,0,
COCCn1c(SCC(=O)NC(=O)NC2CCCCC2)nc2ccccc2c1=O,.,-17,6,-4,-20,-11,.,.,
CCc1ccccc1N(CC(=O)Nc1cccc(N(C)S(C)(=O)=O)c1)S(C)(=O)=O,i,-5,.,-9,-5,-16,-8,-5,
COc1ccc(N2CC(C(=O)NCCc3c[nH]c4ccccc34)CC2=O)cc1 (stereo not given),i,-1,3,-1,-1,-4,-2,-8,

# Brought forward from above: 3 compounds, followed by the next part.
SMILES,Rce1 inh,UUG fidelity,HIV Env fusion,MT1-MMP act inh,MT1-MMP act inh RFP,CSC inhib,PABP polyA inh,eIF4H inh,others
COCCn1c(SCC(=O)NC(=O)NC2CCCCC2)nc2ccccc2c1=O,.,-17,6,-4,-20,-11,.,.,
CCc1ccccc1N(CC(=O)Nc1cccc(N(C)S(C)(=O)=O)c1)S(C)(=O)=O,i,-5,.,-9,-5,-16,-8,-5,
COc1ccc(N2CC(C(=O)NCCc3c[nH]c4ccccc34)CC2=O)cc1 (stereo not given),i,-1,3,-1,-1,-4,-2,-8,
CCCCC(=O)Nc1ccc(C(=O)Nc2ccc(S(=O)(=O)Nc3nccc(C)n3)cc2)cc1,i,.,.,4,2,-8,-12,30,
CCc1nnc(N2CCN(c3ncnc4c3oc3ccccc34)CC2)s1,i,-10,?,-5,-2,.,5,3,
COCC(=O)Nc1cccc(Br)c1,i,6,-37,1,1,-10,12,0,
C=C1CCN([C@@H](C)C(=O)OCc2cccc(C)c2)S(=O)(=O)c2ccccc21,i,-9,25,3,1,13,-10,-2,
CCC(=O)c1cc2c(C)cc(=O)oc2c(C)c1OC,i,-19,-122,-3,-1,-11,-4,3,
Cc1ccc(CSC2=Nc3ccccc3C3=NC(CC(=O)NCc4ccco4)C(=O)N23)cc1 (stereo not given),i,-11,-32,-3,1,15,29*,51*,eIF4H inh retest=65*;PABP polyA inh retest=98*
CN(CC(=O)N1CCOCC1)C(=O)CSc1nc2ccccc2s1,i,.,-10,-1,6,-15,7,1,
Cc1ccc(Nc2nc(N)nc(CSCCO)n2)cc1,i,-14,-93,-3,-2,9,3,-6,
CN1CCN(S(=O)(=O)c2cccc(C(=O)Nc3nc(-c4ccccc4)cs3)c2)CC1,i,2,23,5,-9,.,-9,-1,
Cc1ccc(C(=O)NC(C)CCc2ccccc2)cc1S(=O)(=O)N1CCOCC1 (stereo not given),.,1,.,-2,-10,10,.,.,

# Reprinted at random: 4 records from the list
SMILES,Rce1 inh,UUG fidelity,HIV Env fusion,MT1-MMP act inh,MT1-MMP act inh RFP,CSC inhib,PABP polyA inh,eIF4H inh,others
CC(C)NC(=O)C(c1ccc(F)cc1)N(C(=O)CCC(=O)Nc1ccccn1)c1ccccc1F (stereo not given),.,0,6,-3,1,-9,3,-3,
Cc1ccc(Nc2nc(N)nc(CSCCO)n2)cc1,i,-14,-93,-3,-2,9,3,-6,
COc1cc(CCCN2CCNC[C@@H]2Cc2ccccc2)cc(OC)c1OC,i,-5,.,-5,-3,4,.,.,
C=C1CCN([C@@H](C)C(=O)OCc2cccc(C)c2)S(=O)(=O)c2ccccc21,i,-9,25,3,1,13,-10,-2,

# Continuation:
SMILES,Rce1 inh,UUG fidelity,HIV Env fusion,MT1-MMP act inh,MT1-MMP act inh RFP,CSC inhib,PABP polyA inh,eIF4H inh,others
CC1Cc2ccccc2N1S(=O)(=O)c1cccc(C(=O)Nc2cccnc2)c1 (stereo not given),i,-3,2,-2,-25,-7,3,10,
C#CCNC(=O)C1=C[C@@H](c2ccc(C(F)(F)F)cc2)C[C@@H](OCc2ccc(CO)cc2)O1,i,6&10,2[16.7 µM],0,-1,4,.,.,
COc1ccc(CN2CCN(C(=O)C3CCN(S(=O)(=O)c4cccs4)CC3)CC2)c(OC)c1OC,i,.,2,-1,-5,-2,-3,-5,
O=C(NCC(=O)N(CC1CCCO1)C1(C(=O)NC2CCCC2)CCCCC1)c1ccccc1 (stereo not given),i,-10,-21,1,-1,.,1,3,
CCOC(=O)N1CCN(c2ccc(S(=O)(=O)N3CCOCC3)cn2)CC1,.,-18,-4,0,-1,-15,.,.,
COC(=O)C(O)(NC(=O)NC(C)=O)C(F)(F)F (stereo not given),i,-9,.,-1,2,-8,11,6,
CN1CCN(C(=O)c2cc3nc(-c4ccccc4)cc(-c4ccccc4)n3n2)CC1,i,-3,.,-1,-2,9,-7,0,
Cc1cccc(-c2noc(CCC(=O)Nc3ccc(C(N)=O)cc3)n2)c1,i,1,-2,6,6,-29,-2,-1,
CCC(Oc1ccccc1)C(=O)N1CCC(C(N)=O)CC1 (stereo not given),i,.,.,5,5,1,8,-4,
COc1cc(-c2nc(C)c(C(C)=O)n2O)ccc1OCC(=O)Nc1ccc(F)cc1,i,-5,22,5,2,-8,0,0,

# Filtered by structure: the entries above containing a furan ring, fused or not
SMILES,Rce1 inh,UUG fidelity,HIV Env fusion,MT1-MMP act inh,MT1-MMP act inh RFP,CSC inhib,PABP polyA inh,eIF4H inh,others
CCc1nnc(N2CCN(c3ncnc4c3oc3ccccc34)CC2)s1,i,-10,?,-5,-2,.,5,3,
Cc1ccc(CSC2=Nc3ccccc3C3=NC(CC(=O)NCc4ccco4)C(=O)N23)cc1 (stereo not given),i,-11,-32,-3,1,15,29*,51*,eIF4H inh retest=65*;PABP polyA inh retest=98*

# Returning to the listing with the 4 entries that preceded the break.
SMILES,Rce1 inh,UUG fidelity,HIV Env fusion,MT1-MMP act inh,MT1-MMP act inh RFP,CSC inhib,PABP polyA inh,eIF4H inh,others
CN1CCN(C(=O)c2cc3nc(-c4ccccc4)cc(-c4ccccc4)n3n2)CC1,i,-3,.,-1,-2,9,-7,0,
Cc1cccc(-c2noc(CCC(=O)Nc3ccc(C(N)=O)cc3)n2)c1,i,1,-2,6,6,-29,-2,-1,
CCC(Oc1ccccc1)C(=O)N1CCC(C(N)=O)CC1 (stereo not given),i,.,.,5,5,1,8,-4,
COc1cc(-c2nc(C)c(C(C)=O)n2O)ccc1OCC(=O)Nc1ccc(F)cc1,i,-5,22,5,2,-8,0,0,
COc1ccc(C)cc1NC(=O)c1nnn(Cc2cccc(F)c2)c1N,i,-18,-24,4,2,.,-11,-14,
CC(C)CCN1C(=O)c2ccc(C(=O)NCC3CCCO3)cc2C1=O (stereo not given),i,-5,.,2,-3,-1,-3,-4,
O=C(O)c1cc(C2CC2)nc2ccccc12,i,-3,13,6,2,15,4,-1,
CCCS(=O)(=O)C(=C(Nc1ccc(OC)cc1)Nc1ccc(OC)cc1)S(=O)(=O)CCC,i,-12,.,-1,2,-16,-2,-8,
CSc1cccc(NC(=O)CN2C(=O)c3ccccc3S2(=O)=O)c1,i,5,11,-2,3,-3,-2,-3,
CC(C)(C)Nc1nc2cc([N+](=O)[O-])ccc2o1,i,.,1,0,1,-4,5,7,
CCOC1(OCC)C(c2ccc(N)cc2)C(C#N)(C#N)C1(OCC)OCC (stereo not given),i,-10,30,1,3,-2,3,-5,
COc1cc(C(=O)NCCc2ccc(S(=O)(=O)N3CCCC3)cc2)cc(OC)c1OC,i,-3,7,3,6,-5,-4,8,
CN(CC(=O)NC(=O)NC1CCCCC1)CC(=O)Nc1ccccc1C(F)(F)F,.,17,20,0,-6,.,.,.,
Cc1occc1-c1nnc(SCC(=O)N2CCN(c3ccc(F)cc3)CC2)n1C,i,1,.,-3,-11,-2,-1,0,
CCC(C(=O)NC1CC1)n1nc(C)c2c(C)n(-c3ccc(C)cc3)nc2c1=O (stereo not given),i,-23,-7,6,-6,-9,-9,-9,
Cc1ccc(/C=C/S(=O)(=O)NCc2ccc(F)cc2)cc1,i,.,8,-2,2,3,-8,-8,
Cc1cc(C)cc(N(CC(=O)NC(C)(C)C)C(=O)CNC(=O)c2cccs2)c1,i,.,-4,-5,-5,0,2,4,
